StopGo FLuc: lowers the firefly signal of an FMDV 2A StopGo reporter; actives 0.23% (n = 120,000); HEK cells with a luciferase reporter of 2A StopGo recoding; Potency, µM (series often up to 57.5 µM), without a hit: at the highest dose signal change, negative = less light; active = well fitted falling curve with a large enough effect; inconclusive = small, poorly fitted or top-dose-only effect; inactive = no such curve, though single readings can be large or run the other way; further: nearly all actives have a fitted effect of over 60% in size; overnight with compound
2A Renilla: FMDV 2A StopGo reporter, Renilla signal. actives 0.32% (n = 120,000). Potency, µM (highest dose often 57.5 µM), without a hit: top-dose signal change, negative = less light. HEK cells with a luciferase reporter of 2A StopGo recoding; active means well fitted falling curve with a large enough effect; inconclusive means small, poorly fitted or top-dose-only effect; inactive means no such curve, though single readings can be large or run the other way; further: nearly all actives have a fitted effect of over 55% in size; overnight with compound
* marks the source's active call; other numbers are inactive results; & = joins results of further samples; [ ] = another dose, or the depositor's remark. On the % scale 0 is the no-effect control and ±100 the full control effect; potency means the concentration at half of the fitted maximal effect. These rows are one share of the data, so the mix of outcomes need not match the whole.

`COC(=O)c1ccc(CNC(=O)NOCc2ccccc2)cc1` gave StopGo FLuc 38%[activator] and 2A Renilla 8%.
For COc1ccc(CCNC(=O)CCCn2c(SCC(N)=O)nc3cc4c(cc3c2=O)OCO4)cc1OC the results were StopGo FLuc 5% and 2A Renilla 2%.
`CC(C)C(=O)N1N=C(c2cc(Cl)ccc2Cl)CC1c1ccc2nccnc2c1` (centres undefined) gave StopGo FLuc 19% and 2A Renilla 8%.
Screening COc1ccc(-c2nn(-c3ccc(F)cc3)c3c2cnc2ccc(F)cc23)cc1OC returned StopGo FLuc -4% and 2A Renilla -4%.
`COc1ccc(-c2nc(CSCC(=O)NCc3cccnc3)c(C)o2)cc1` gave StopGo FLuc 14µM* and 2A Renilla -14%.
For c1ccc(CCNCc2ccc3[nH]ccc3c2)cc1 the results were StopGo FLuc -2% and 2A Renilla -12%.
CC(C)C(NC(=O)c1ccc(C23CC4CC(CC(C4)C2)C3)cc1)C(=O)O (centres undefined) was read as StopGo FLuc 164%[activator] and 2A Renilla 3%.
CCOC(=O)C1(C(F)(F)F)N=C(c2ccc(OC)cc2)OC(N(C)C)=N1 (centres undefined) was read as StopGo FLuc 10% and 2A Renilla 0%.
`CCc1ccc(Oc2nc3c(C)cccn3c(=O)c2/C=C(\C#N)c2nc3ccccc3s2)cc1` gave StopGo FLuc -10% and 2A Renilla 0%.
For CCCN1CCc2nc(SCC(=O)Nc3ccc(C)c(Cl)c3)[nH]c(=O)c2C1 the results were StopGo FLuc 12% and 2A Renilla 11%.
CCOC(=O)c1cnc2ccccc2c1N1CCOCC1 was read as StopGo FLuc 11% and 2A Renilla 3%.
`CCc1ccc(OCC(=O)NCC(c2ccc(OC)cc2)N2CCOCC2)cc1` (centres undefined) gave StopGo FLuc -11% and 2A Renilla -6%.
Screening Cc1cc(C(=O)C(C)Sc2nnnn2C2CCCC2)c(C)n1Cc1ccco1 (centres undefined) returned StopGo FLuc 13% and 2A Renilla 7%.
`Cc1nc2cc(NS(=O)(=O)c3ccc(C#N)cc3)ccc2o1` gave StopGo FLuc -6% and 2A Renilla -8%.
`O=C(Nc1ccc(NC(=O)c2ccc(Br)cc2)c(Cl)c1)c1ccc(Br)cc1` gave StopGo FLuc -28% and 2A Renilla 6%.
For CCOc1ccc(CNC(=O)Cn2nc(C)c3nn(-c4ccc(Cl)cc4)c(C)c3c2=O)cc1 the results were StopGo FLuc -10% and 2A Renilla -9%.
Screening COC(=O)c1ccc(NC(=O)CSc2nc(=O)[nH]c3c2CCCC3)cc1 returned StopGo FLuc -24% and 2A Renilla -4%.
For OC1(c2ccc(Cl)cc2)CCNCC1 the results were StopGo FLuc 5%[11.5 µM] and 2A Renilla -5%.
`COc1ccc(N(C)C(=O)NCc2noc3ccc(C)cc23)c(OC)c1` gave StopGo FLuc -3% and 2A Renilla 3%.
Screening O=C(c1nc(-c2ccc(Cl)cc2)n2c1CCCCC2)N1CCN(c2ccc(F)cc2)CC1 returned StopGo FLuc -23% and 2A Renilla -5%.
`CC(C)(C)OC(=O)N1CCC(c2c(C(=O)N3CCN(c4ccccn4)CC3)cnn2-c2ccc(F)cc2)CC1` gave StopGo FLuc -21% and 2A Renilla -11%.
For N#Cc1ccc(OCc2cccc3cccnc23)cc1 the results were StopGo FLuc 131%[activator] and 2A Renilla 16%.
Cc1ccc(-c2cc(C(=O)O)c3cc(Br)ccc3n2)cc1C was read as StopGo FLuc 69%[activator] and 2A Renilla inconclusive.
For Cc1cc2nc(-c3ccc(OCc4ccccc4)cc3)cc(C(F)(F)F)n2n1 the results were StopGo FLuc 7% and 2A Renilla -2%.
Cc1ccc(NC(=O)c2c(C)cc(C)nc2SCC(=O)Nc2ccc(Br)cc2)cc1 was read as StopGo FLuc 3% and 2A Renilla 15%.
`Cc1cccc(C(=O)Nc2cccc(C(=O)OCc3cc(=O)n4c5c(sc4n3)CCCC5)c2)c1` gave StopGo FLuc 21% and 2A Renilla 21%.
COc1ccc(-c2c(NC(=O)c3ccccc3)oc3ccccc3c2=O)cc1 was read as StopGo FLuc 10% and 2A Renilla -17%.
For COc1ccc(Cn2c(=O)c3cccnc3n(Cc3cccc(OC)c3)c2=O)cc1 the results were StopGo FLuc -4% and 2A Renilla 16%.
`FC(F)Sc1ccc(NC(=S)N(Cc2ccccc2)Cc2ccccc2)cc1` gave StopGo FLuc inconclusive and 2A Renilla -22%.
Screening COc1ccc(C2C=C(c3ccccc3)Nc3nc(NC(=O)c4ccc(C)cc4)nn32)cc1 (centres undefined) returned StopGo FLuc 28% and 2A Renilla -2%.
For CCOc1ccc(CNC(=O)c2ccc(CS(=O)Cc3ccc(Cl)cc3)o2)cc1 (centres undefined) the results were StopGo FLuc -13% and 2A Renilla -5%.
Screening CC(=O)c1c(C)[nH]c(C(=O)Cn2cnc3c2c(=O)n(C)c(=O)n3C)c1C returned StopGo FLuc 0% and 2A Renilla -3%.
For Cc1ccc(CCNC(=O)c2ccc3c(=O)n(-c4ccccc4)c(=O)[nH]c3c2)cc1 the results were StopGo FLuc 0%&-15% and 2A Renilla -4%&-5%.
For CCCCNC(=O)C1CCN(S(=O)(=O)CCC)CC1 the results were StopGo FLuc -6% and 2A Renilla -12%.
`COc1ccc(S(=O)(=O)NCC(c2ccco2)S(=O)(=O)c2cccs2)cc1OC` (centres undefined) gave StopGo FLuc -12% and 2A Renilla 211%[activator].
Screening Cc1cccc(C)c1NC(=O)C(=O)NCC(c1ccc2c(c1)OCO2)N1CCN(C)CC1 (centres undefined) returned StopGo FLuc -18% and 2A Renilla 59%[activator].
C#CCn1c(=NC(=O)c2ccc3c(c2)OCCO3)sc2cc(OC)c(OC)cc21 was read as StopGo FLuc -19% and 2A Renilla -5%.
For Cc1cccc(CNC(=O)c2ccc3c(c2)N(C)C(=O)C2CCCCN32)c1 (centres undefined) the results were StopGo FLuc 70%[activator] and 2A Renilla 78%[activator].
Screening Cc1ccc(N(CC(O)CN2CCCCC2)S(=O)(=O)c2ccc3ccccc3c2)cc1 (centres undefined) returned StopGo FLuc -19% and 2A Renilla 4%.
Screening Cn1nc(C(=O)N2CCCc3ccccc32)c2ccccc2c1=O returned StopGo FLuc 6% and 2A Renilla 32%[activator].
`COc1cc(-c2nc(Cn3nnc(C(=O)Nc4ccccc4C)c3C)c(C)o2)cc(OC)c1OC` gave StopGo FLuc -11% and 2A Renilla -8%.
Screening CCS(=O)(=O)N1CC(=O)N(c2ccc(Cl)cc2C)C(C)(C(=O)NC2CCCCC2)C1 (centres undefined) returned StopGo FLuc -8% and 2A Renilla -6%.
Screening CNC(=O)c1cc(NC(=O)CCn2nc(-c3ccccc3)c3ccccc3c2=O)ccc1OC returned StopGo FLuc 11% and 2A Renilla 68%[activator].
`CC(C)Oc1cccc(C(=O)Nc2cc(C(C)(C)C)on2)c1` gave StopGo FLuc 15% and 2A Renilla 8%.
Screening O=c1n(Cc2ccc(Cl)cc2)c2ccccc2c2nc(-c3ccccc3)nn12 returned StopGo FLuc 14% and 2A Renilla -7%.
For COc1ccc(Cn2c(=O)c3oc4ccccc4c3n(CC(=O)Nc3ccc(F)cc3F)c2=O)cc1 the results were StopGo FLuc -19% and 2A Renilla -5%.
O=C1CCSC2(C(=O)N(Cc3ccc(F)cc3)c3ccccc32)N1c1ccc(Cl)cc1 (centres undefined) was read as StopGo FLuc -11% and 2A Renilla 24%.
`CC(=O)c1cccc(Nc2nc3ccccc3nc2NS(=O)(=O)c2cccc(C)c2)c1` gave StopGo FLuc 5% and 2A Renilla 0%.

Continued; it opens with the 4 that closed the last part.
Screening O=c1n(Cc2ccc(Cl)cc2)c2ccccc2c2nc(-c3ccccc3)nn12 returned StopGo FLuc 14% and 2A Renilla -7%.
For COc1ccc(Cn2c(=O)c3oc4ccccc4c3n(CC(=O)Nc3ccc(F)cc3F)c2=O)cc1 the results were StopGo FLuc -19% and 2A Renilla -5%.
O=C1CCSC2(C(=O)N(Cc3ccc(F)cc3)c3ccccc32)N1c1ccc(Cl)cc1 (centres undefined) was read as StopGo FLuc -11% and 2A Renilla 24%.
`CC(=O)c1cccc(Nc2nc3ccccc3nc2NS(=O)(=O)c2cccc(C)c2)c1` gave StopGo FLuc 5% and 2A Renilla 0%.
CS(=O)(=O)N1CCN(C(C(=O)O)c2c[nH]c3cc(Cl)ccc23)CC1 (centres undefined) was read as StopGo FLuc -2% and 2A Renilla -1%.
For O=C(NCc1cccc(Cl)c1)c1ccc2nc(N3CCCCC3)sc2c1 the results were StopGo FLuc 41%[activator] and 2A Renilla 5%.
O=C(CSc1nnnn1C1CCCC1)NC(c1ccccc1)c1cccs1 (centres undefined) was read as StopGo FLuc -4% and 2A Renilla -5%.
`Cc1ccc(NC(=O)CCNC(=O)Cc2ccccc2)cc1C` gave StopGo FLuc 11% and 2A Renilla -6%.
Screening CCOC(=O)c1cccc(C(=O)O)n1 returned StopGo FLuc 1% and 2A Renilla 6%.
`Cc1cc(=O)[nH]c2nnc(SCC(=O)NC(C)(C)C)n12` gave StopGo FLuc -17% and 2A Renilla -7%.
CC(C)C(=O)Nc1cccc(C(=O)Nc2nnc(C(F)(F)F)s2)c1 was read as StopGo FLuc 150%[activator] and 2A Renilla -10%.
Screening CC(OC(=O)c1ccc(CCNS(C)(=O)=O)cc1)C(=O)N(C(C)C)C(C)C (centres undefined) returned StopGo FLuc 1% and 2A Renilla -2%.
`COc1ccc(-c2[nH]c3ccccc3c2SCCNC(=O)c2cc(OC)c(OC)c(OC)c2)cc1` gave StopGo FLuc -8% and 2A Renilla 6%.
Screening CC(C)c1ccccc1NC(=O)CSc1nnc(COc2ccccc2Cl)o1 returned StopGo FLuc 0% and 2A Renilla -8%.
For CC(C)Cc1nn2c(=O)cc(COC(=O)c3ccccc3NC(=O)c3cccs3)nc2s1 the results were StopGo FLuc -13% and 2A Renilla -15%.
Screening Fc1ccc(N2CCN(Cc3nnc(-c4ccccc4Cl)o3)CC2)cc1 returned StopGo FLuc -12% and 2A Renilla -11%.
For Cn1c(=O)c2c(-c3ccc(Cl)cc3)ccnc2n(C)c1=O the results were StopGo FLuc -6% and 2A Renilla -4%.
Screening COc1ccc(Cn2ccc3nc(C)c(C(=O)N4CCN(c5cc(C)ccc5C)CC4)cc3c2=O)cc1 returned StopGo FLuc -21% and 2A Renilla 11%.
`O=c1c2ccccc2cnn1Cc1coc(-c2cccc(Cl)c2)n1` gave StopGo FLuc 85%[activator] and 2A Renilla 16%.
Screening Cc1c(C(=O)OC2CCC(C)CC2)[nH]c2c1C(=O)CC(c1ccc(N(C)C)cc1)C2 (centres undefined) returned StopGo FLuc -12% and 2A Renilla -12%.
`Cc1ccc(-n2ncc(C(=O)NCc3ccco3)c2C2CCN(C(=O)OC(C)(C)C)CC2)cc1` gave StopGo FLuc -26% and 2A Renilla 61%[activator].
Brc1ccc(-c2noc(-c3ccncc3)n2)o1 was read as StopGo FLuc 0% and 2A Renilla 12%.
Screening CC1(C)OC2OC(C(=O)Oc3ccc(Cl)cc3)C3OC(C)(C)OC3C2O1 (centres undefined) returned StopGo FLuc -3% and 2A Renilla 5%.
`CC(=O)c1ccccc1NC(=O)COC(=O)c1cc(=O)c2ccccc2o1` gave StopGo FLuc 0% and 2A Renilla -11%.
`CN(C)CCCN(C(=O)c1cccs1)c1nc2ccc(F)cc2s1` gave StopGo FLuc 54%[activator] and 2A Renilla -17%.
Screening Cc1cc2nc(NC3=NCN(CCO)CN3)nc(C)c2cc1C returned StopGo FLuc inconclusive and 2A Renilla inconclusive.
For CCCCOc1ccc2c(-c3ccccc3)cc(=O)oc2c1C the results were StopGo FLuc 21% and 2A Renilla 20%.
CC1(C)C2CC=C(/C=N/NC(=S)NC3CCCCC3)C1C2 (centres undefined) was read as StopGo FLuc 0% and 2A Renilla 42%[activator].
CC(CNC(=O)CCCNC(=O)C1CC1)c1ccccc1 (centres undefined) was read as StopGo FLuc 9% and 2A Renilla 3%.
CCOc1ccccc1NC(=O)CCNS(=O)(=O)c1cccc2nonc12 was read as StopGo FLuc -1% and 2A Renilla 44%[activator].
Screening COc1ccc(S(=O)(=O)c2c(Nc3ccccc3F)sc(C(=O)c3cccc(OC)c3)c2N)cc1 returned StopGo FLuc 6% and 2A Renilla 173%[activator].
For O=C(CN1C(=O)COc2ccc(S(=O)(=O)Nc3ccccc3)cc21)Nc1cccc(Cl)c1 the results were StopGo FLuc -18% and 2A Renilla 100%[activator].
`COc1ccc(C2Nc3c(C)cc(C)cc3-c3cc(C)nn32)cc1O` (centres undefined) gave StopGo FLuc 13% and 2A Renilla -9%.
Screening COc1cc(/C=N/O)ccc1OCC(=O)Nc1ccccc1 returned StopGo FLuc 130%[activator] and 2A Renilla 58%[activator].
CCN(Cc1ccccc1)S(=O)(=O)c1cc(C(=O)Nc2cc(Cl)cc(Cl)c2)ccc1F was read as StopGo FLuc inconclusive and 2A Renilla inconclusive.
For CNC(=O)CCc1nc(-c2ccccc2)c(-c2ccccc2)o1 the results were StopGo FLuc 15% and 2A Renilla 7%.

Six neighbouring records from above, for reference:
`CC(=O)c1cccc(Nc2nc3ccccc3nc2NS(=O)(=O)c2cccc(C)c2)c1` gave StopGo FLuc 5% and 2A Renilla 0%.
CS(=O)(=O)N1CCN(C(C(=O)O)c2c[nH]c3cc(Cl)ccc23)CC1 (centres undefined) was read as StopGo FLuc -2% and 2A Renilla -1%.
For O=C(NCc1cccc(Cl)c1)c1ccc2nc(N3CCCCC3)sc2c1 the results were StopGo FLuc 41%[activator] and 2A Renilla 5%.
O=C(CSc1nnnn1C1CCCC1)NC(c1ccccc1)c1cccs1 (centres undefined) was read as StopGo FLuc -4% and 2A Renilla -5%.
`Cc1ccc(NC(=O)CCNC(=O)Cc2ccccc2)cc1C` gave StopGo FLuc 11% and 2A Renilla -6%.
Screening CCOC(=O)c1cccc(C(=O)O)n1 returned StopGo FLuc 1% and 2A Renilla 6%.

Screening results deposited in PubChem by National Center for Advancing Translational Sciences (NCATS).
